Screening results (PubChem BioAssay)
Yeast UUG start: modulators of start codon recognition fidelity in yeast | S. cerevisiae UUG-firefly luciferase reporter, luminescence/redox ratio | 350,000 compounds, 0.13% hits | activity score, % at 18.7 µM;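 active = replicate mean at a twofold rise or more, about +100% in these data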;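 also: firefly luciferase made from a UUG start codon reports start codon fidelity; reporter light over untreated wells divided by growth signal over untreated wells; some hits fall short of that in this replicate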
CSC inhib: cancer stem cell inhibition | cancer stem cell-like cells viability, luminescence | inhibition, % at 7.5 µM | AID 2717 | 300,000 compounds, 1.1% hits;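 active = mean at 75% or more and at least half the replicates too; inconclusive = mean and replicates disagree; tested in HMLE shEcad cells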;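 also: 0% = median of negative and 100% = median of positive control wells; the first replicate is given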
MT1-MMP act inh: blocks activation of human MT1-MMP. P50281. 360,000 compounds, 0.061% hits. GFP/RFP ratio change, % at 20 µM. HT1080 RFP-PRO-GFP cells, GFP/RFP ratio fluorescence, overnight; percent of plate control window, DMSO zero;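 active = GFP/RFP ratio change of at least 30% with cell ATP level not reduced by more than half and red fluorescence within 50% of control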; also: strong numbers were not always called active
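Assay system: HT1080 RFP-PRO-GFP cells. Benchmarks: DMSO vehicle wells and RFP-L50D-GFP reporter cell wells. Times: overnight cell settling, then overnight compound exposure, 37 °C, 5% CO2. Compound: 20 µM single dose, 1% DMSO. Read-out basis: GFP/RFP fluorescence ratio.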
Rce1 inh: blocks yeast Ras-converting enzyme | 290,000 compounds, 0.27% hits | yeast membranes, quenched prenylated peptide cleavage fluorescence | calls only | AID 2563;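 active = fall in fluorescence gain of 50% or more versus controls, with final raw signal at or below 3038400; inconclusive = same 50% fall but final raw signal above 3038400; inactive = fall in fluorescence gain under 50%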;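 also: plate controls were neutral control wells for no effect and wells lacking membranes for full effect; tested at 10 µM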
eIF4H inh: inhibitors of RNA binding by human eIF4H | Q15056 | eIF4H fluorescence polarization binding assay | inhibition, % at 35 µM | 290,000 compounds, 0.94% hits | AID 2012;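 active = 50% or more with normal probe brightness, or confirmed in later tests; inconclusive = above 50% with abnormal brightness, or retests that disagree; inactive = below 50% or failed in later tests; about a fifth of its hits are not listed in these tables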;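 also: calls also rest on retests at 20 µM and on dose response follow-up; 0% = protein and probe with vehicle and 100% = probe without protein; strong numbers were not always called active; many hits fall short of the cut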
PABP polyA inh: blocks human PABP binding to poly(A) RNA; inhibition, % at 35 µM; AID 2014; fluorescence polarization; P11940; 290,000 compounds, 1% hits;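 active = 50% or more with normal probe brightness, or confirmed in later tests; inconclusive = above 50% with abnormal brightness, or retests that disagree; inactive = below 50% or failed in later tests; about a fifth of its hits are not listed in these tables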;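 also: calls also rest on retests at 20 µM and on dose response follow-up; controls were probe without protein and protein plus probe with vehicle; some compounds called inactive have numbers as strong as hits; many hits fall short of the cut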
Target sequence (P11940 whole entry, looked up): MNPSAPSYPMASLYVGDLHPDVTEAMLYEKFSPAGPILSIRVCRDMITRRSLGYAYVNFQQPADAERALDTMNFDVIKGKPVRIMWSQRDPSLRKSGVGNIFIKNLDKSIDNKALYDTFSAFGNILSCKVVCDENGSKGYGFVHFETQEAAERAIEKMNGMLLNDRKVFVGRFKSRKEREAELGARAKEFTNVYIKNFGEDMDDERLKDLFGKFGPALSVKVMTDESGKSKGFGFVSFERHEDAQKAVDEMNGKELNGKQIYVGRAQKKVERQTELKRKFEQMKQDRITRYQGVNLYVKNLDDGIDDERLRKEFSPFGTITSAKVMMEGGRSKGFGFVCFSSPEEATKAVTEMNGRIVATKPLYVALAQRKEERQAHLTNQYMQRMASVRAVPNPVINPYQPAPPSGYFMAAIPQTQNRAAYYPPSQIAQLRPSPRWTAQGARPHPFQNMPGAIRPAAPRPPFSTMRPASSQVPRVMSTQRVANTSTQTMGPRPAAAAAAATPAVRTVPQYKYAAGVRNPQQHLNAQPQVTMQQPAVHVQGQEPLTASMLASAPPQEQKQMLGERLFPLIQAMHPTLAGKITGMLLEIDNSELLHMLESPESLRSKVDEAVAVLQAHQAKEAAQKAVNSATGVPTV
Env fusion inh: HIV envelope-mediated fusion inhibition; HeLa-JRFL Env/CEM21 cell fusion, luciferase; inhibition, % at 12.3 µM; 360,000 compounds, 1.1% hits; AID 651610;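 active = mean replicate inhibition score of at least 50 and every replicate individually at or above 50; inconclusive = only one of the two criteria met; inactive = mean below 50 and not all replicates reaching 50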;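 also: 0% = plate neutral controls and 100% = maraviroc near 300 nM; one replicate is shown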
MT1-MMP act inh RFP: further read-out of MT1-MMP act inh, marked with its call; RFP signal change, %; measured here: RFP expression control read;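 0 = vehicle wells; hits needed this value within 50% of zero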
An asterisk follows results filed as active; i = inactive; ? = inconclusive; / = not tested or not shown; & = joins results of further samples.

#	structure	Yeast UUG start	CSC inhib	MT1-MMP act inh	MT1-MMP act inh RFP	Rce1 inh	eIF4H inh	PABP polyA inh	Env fusion inh
1	COc1cc(OC)cc(-c2noc(-c3csc([C@@H]4O[C@H](CO)[C@H](O)[C@H](O)[C@H]4O)n3)n2)c1	-8	/	6	-1	/	/	/	-12
2	COc1cc(/C=N/NC(=O)CCN2CCN(C(c3ccccc3)c3ccccc3)CC2)ccc1O	/	-1	-4	-1	i	-10	-18	5
3	CCOc1cc(Br)c(CC(=O)O)cc1OCC	-7	-16	4	9	i	-4	-7	2
4	CC(=O)N/N=C\c1ccccc1OC/C=C/c1ccccc1	-3	26	-4	-4	i	-3	-17	-60
5	COc1cc(C(=O)Nc2ccncc2)c([N+](=O)[O-])cc1OC	/	-14	3	-2	i	0	-4	-2
6	N#C/C(=C\N1CCN(Cc2ccc3c(c2)OCO3)CC1)c1nc2ccccc2s1	-2	27	-78	-10	i	?	?	44
7	O=C1CCc2cc(NS(=O)(=O)c3ccc(F)cc3)cc3c2N1CCC3	-21	/	9	1	i	/	/	12
8	CCN1C(=O)[C@H]2[C@@H](c3ccc(-c4ccc(C(C)=O)cc4)cc3)N[C@@](Cc3ccccc3)(C(=O)OC)[C@H]2C1=O	-6	13	-2	-6	i	/	/	-4
9	CC1=NNC(=O)/C1=C\c1cn(-c2ccccc2)nc1-c1ccccc1	/	70	-32	-41	i	6	0	-59
10	CCSc1nnc(-c2ccncc2)o1	-9	-7	2	-3	i	-2	-6	2
11	O=C(NC(=S)NNC(=O)c1ccccc1O)c1cccs1	-21	/	-10	-8	i	11	-1	-23
12	Cc1ccc(S(=O)(=O)N2CCOCC2)cc1NC(=O)CSc1nnnn1C1CC1	11	/	-2	5	/	/	/	19
13	O=C(NN1C(=O)C2C3CCC(O3)C2C1=O)c1ccc(Br)o1 (stereo not drawn)	-6	-6	4	4	i	-6	-6	/
14	C/C(CC(C)(C)C1CCCCC1)=N\NC(N)=S	/	/	-57	-32	i	-5	-4	-2
15	CC(C)N(Cc1nc(-c2ccccc2)no1)C(=O)CN(C)S(=O)(=O)c1ccccc1	-12	-6	1	0	i	1	-3	/
16	Cc1ccc(NC(=O)CCS(=O)(=O)c2ccc(Br)s2)cc1	8	-4	3	0	i	6	6	4
17	COc1ccc(S(=O)(=O)CC2(O)CCN(C(=O)CC(C)C)CC2)cc1	-6	-9	-2	-1	i	-3	13	-11
18	Cn1c(O)c(C(C#N)=C2N=c3ccccc3=N2)c2ccccc21	-15	7	-2	-1	i	16	-4	-257
19	O=C(CCn1nc(-c2ccccc2)ccc1=O)N1CCCC1	-8	-9	3	2	i	-19	4	/
20	COC(=O)c1ccc(NC(=O)CNS(=O)(=O)c2cccs2)cc1	-20	-5	-3	1	i	-3	7	-3
21	Cc1ccc(C2=NOC(C)(c3nnc(Cc4ccccc4)o3)C2)cc1 (stereo not drawn)	-11	-23	2	1	i	/	/	-6
22	CCOc1cc(N2CCOCC2)c(OCC)cc1NC(=O)COC(=O)CCn1c(C)csc1=O	-14	-15	0	2	i	/	/	/
23	O=C(CCCn1ncn2c(cc3occc32)c1=O)NCc1cccc(Cl)c1	-20	6	2	0	i	-2	4	-1
24	CCOc1ccc(NC(=O)CSc2ncc(-c3ccc(F)cc3)n2Cc2ccco2)cc1	/	14	1	-2	i	5	-3	-25
25	COC(=O)C(/C=N/O)NC(=O)c1ccccc1 (stereo not drawn)	/	-18	-2	5	i	6	-9	-15
26	COc1ccc(S(=O)(=O)N2CCOC2CNC(=O)C(=O)NCCc2c[nH]c3ccccc23)cc1C (stereo not drawn)	-8	28	-4	-18	i	1	3	12
27	CN(C)S(=O)(=O)c1ccc(N2CCCC2)c(C(=O)NCc2ccccc2)c1	-7	-19	-2	3	i	-3	5	/
28	C[C@@H]1CN([C@@H](C)CO)C(=O)c2cccc(NC(=O)C3CCCCC3)c2O[C@@H]1CN(C)Cc1ccc(Cl)c(Cl)c1	-6&-7	14	-8	-22	/	/	/	3
29	O=C1C(c2ccccc2)NC(=S)N1C1CCCCC1 (stereo not drawn)	-7	-4	2	4	i	14	4	1
30	O=C(NC1CCCC1)c1ccccc1-c1ccccc1	/	5	0	3	i	-5	3	2
31	COc1ccc(CNC(=O)CN(c2ccccc2)S(=O)(=O)c2ccccc2[N+](=O)[O-])cc1	-10	18	-7	-9	i	12	2	24
32	CC1(C)OC(=O)C(=CNc2ccccn2)C(=O)O1	-11	0	2	6	i	1	4	-10
33	CCC(C)NCCC(=O)Nc1ccc(Cl)c(S(=O)(=O)Nc2ccc(Cl)cc2)c1 (stereo not drawn)	/	-12	-1	-5	i	7	-3	1
34	CN(CC(=O)O)S(=O)(=O)c1ccc2c(c1)n(C)c(=O)c(=O)n2C	/	/	1	3	i	-6	5	-3
35	COCCCNC(=S)Nc1ccc2nc3n(c(=O)c2c1)CCCCC3	/	3	-1	-1	/	-3	-6	21
36	O=C(NNC(=S)NCc1ccco1)c1ccccc1Br	-14	-4	-3	-4	i	-2	0	-33
37	CC(=O)C1=C(O)C(=O)N(c2ccc(S(N)(=O)=O)cc2)C1c1ccc([N+](=O)[O-])cc1 (stereo not drawn)	/	-5	3	4	i	-5	6	/
38	CCOC(=O)/C=C/C(=O)Nc1ccc(S(=O)(=O)Nc2cc(C)on2)cc1	-22	/	-2	-3	i	1	0	-8
39	O=C(CCN1CCOCC1)c1ccc2c(c1)OCCO2	-19	10	4	3	i	-5	?	/
40	CN(C(=O)COC(=O)c1ccc(Cl)c(S(=O)(=O)N2CCCCCC2)c1)C1CCS(=O)(=O)C1 (stereo not drawn)	-9	8	-1	-16	/	/	/	/
41	O=C(C(Cl)c1ccccc1)N1CCOCC1 (stereo not drawn)	-1	12	2	1	i	-7	-5	-15
42	Cc1ccc(NC(=O)C2CCN(S(=O)(=O)c3cccs3)CC2)cc1	/	1	6	3	i	-2	0	5
43	CCOC(=O)C1=C(C)NC2=C(C(=O)c3ccccc32)C1c1ccc([N+](=O)[O-])o1 (stereo not drawn)	-13	4	0	2	i	35	16	27
44	CC1(C)Cc2c(sc(NC(=O)COc3ccccc3)c2C#N)C(C)(C)N1	/	/	1	-1	i	-4	3	0
45	CCn1c(SCC(=O)c2ccccc2)nnc1-c1cccnc1	/	-7	2	1	/	3	-7	11
46	O=c1[nH]c2cc3c(cc2cc1CN(Cc1cccnc1)C(=S)NCc1ccco1)OCO3	/	/	-2	0	i	12	10	-17
47	C/C(=N\NC(=O)c1cccc(Br)c1)c1cccnc1	-18	1	-1	5	i	-4	-5	-16
48	O=C(Cn1cc(COc2ccc(Br)cc2)nn1)c1ccc(O)cc1	-14	/	4	2	/	/	/	9
49	COc1ccc(OCCC(=O)OCC(=O)NC(=O)NC2CCCCC2)cc1	-4	-13	1	2	i	-10	-1	2
50	O=C(CSc1nc2ccccc2[nH]1)c1c[nH]c2ccccc12	-13	-4	/	/	i	-3	-1	-38

Next part:
#	structure	Yeast UUG start	CSC inhib	MT1-MMP act inh	MT1-MMP act inh RFP	Rce1 inh	eIF4H inh	PABP polyA inh	Env fusion inh
51	O=C(O)c1ccc(NC(C(=O)c2ccccc2)c2ccccc2)cc1 (stereo not drawn)	-10	/	-5	2	/	/	/	?
52	O=C(Nc1ccc(Cl)cc1)Nc1cccnc1	-17	16	1	4	i	2	0	/
53	CCN1C(=O)[C@H]2[C@@H](c3ccc(-c4ccc(OC)cc4)cc3)N[C@@](Cc3ccccc3)(C(=O)OC)[C@H]2C1=O	-17	2	-2	-7	i	/	/	-19
54	C/C(=N\Nc1nc(Cl)c(Cl)cc1Cl)c1ccc(S(=O)(=O)NCc2ccco2)cc1	/	11	1	-9	i	7	2	20
55	Cc1ccc(NC(=O)c2cc3c(s2)CCCC3)cc1	-25	26	0	-1	i	-4	6	-118
56	O=C1NC2=C(C(=O)c3ccccc32)C(c2ccccc2)N1 (stereo not drawn)	4	-8	7	3	i	45	-2	/
57	CN1C[C@@H]2[C@@H]3C(=O)N(C)C(=O)[C@@H]3[C@](C)(C1=O)N2C(=O)c1ccc(Cl)c(Cl)c1	-9	/	-3	4	/	/	/	-2
58	Cc1cc(N)n(-c2cc(C)c3ccccc3n2)n1	/	/	-3	1	i	-7	-9	-63
59	COC(=O)c1ccc(/C=C/c2ccc3cccc(OC)c3n2)cc1	/	3	2	-5	i	-4	13	/
60	O=C(CCCNS(=O)(=O)c1cccc2nsnc12)NCc1ccc(Cl)cc1	-11	-1	2	-2	i	-3	10	-101
61	COCC1CCN(Cc2cn(-c3ccccc3F)nc2-c2cc(C)sc2C)CC1	-11	1	-2	0	i	-10	-3	14
62	CCCCCc1ccc(OCCC[n+]2ccccc2)c(CCCCC)c1	/	11	-41	-37	i	-5	18	52
63	Nc1ccn(C(C=O)CC(C=O)CO)c(=O)n1 (stereo not drawn)	2	/	1	6	/	/	/	-28
64	O=C(CNC(=O)c1ccc(S(=O)(=O)N2CCCC2)cc1)N/N=C/c1ccc(Cl)cc1	7	-13	3	-2	i	-2	6	/
65	O=C(O)c1ccc(-c2sc(Nc3ccccc3)n[n+]2-c2ccc(F)cc2)cc1	-15	-22	-1	6	i	-1	7	/
66	CC(C)CCN1CCN(C2CSCCSC2)CC1CCO (stereo not drawn)	-20	1	0	6	i	5	-6	11
67	O=C(NCc1ccncc1)C1Cc2c(-c3ccccc3Oc3ccccc3)ccnc2O1 (stereo not drawn)	-19	/	0	-10	/	/	/	7
68	COc1ccccc1NC(=O)CNc1ccc(F)c(Cl)c1	/	37	1	3	i	-6	-11	-5
69	CC12CCC(=O)N1C(C(=O)Nc1cc(C(F)(F)F)ccc1N1CCOCC1)CS2 (stereo not drawn)	/	-20	4	-3	i	/	/	17
70	N#Cc1ccccc1NC(=O)CSc1nccn1CCc1ccccc1	-1	-8	0	5	i	4	-2	-34
71	Cc1ccc2cc(CN(CCCO)S(=O)(=O)c3ccccc3F)c(=O)[nH]c2c1C	11	-1	1	0	i	2	7	-8
72	Cc1nnc(CN(C)C(=O)CC2C(=O)NCCN2Cc2ccccc2C)o1 (stereo not drawn)	-24	16	-1	1	i	-20	1	-6
73	COc1ccc(Cn2c(=O)oc3ccc(C)cc32)cc1	-43	4	0	0	/	4	2	11

These rows are one share of the data. The share of hits here may be higher or lower than overall.
